RVFV N-RNA inh: inhibitors of RVFV nucleoprotein–RNA binding, primary screen, biochemical, fluorescence polarization | RVFV N-RNA binding; stronger effect = lower value | % bound, % (test concentration not listed) | P21700 | hit rate 0.1% among 20,000 | AID 651828, 2012;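 active = between 0 and 58% in either replicate with normal brightness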;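 note: 100 nL library stock added to about 12 µL; 100% = protein and probe without compound and 0% = probe alone; numbers are from one replicate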
Target sequence (P21700 whole entry, looked up): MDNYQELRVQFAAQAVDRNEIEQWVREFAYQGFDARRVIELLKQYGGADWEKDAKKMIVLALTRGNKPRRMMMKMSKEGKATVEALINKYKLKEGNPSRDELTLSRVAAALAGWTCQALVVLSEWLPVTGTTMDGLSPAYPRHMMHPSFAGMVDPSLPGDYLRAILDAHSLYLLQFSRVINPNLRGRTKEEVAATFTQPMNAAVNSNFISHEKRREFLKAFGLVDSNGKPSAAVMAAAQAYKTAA
Active calls of the source: *; & = joins results of further samples. Some of the compounds tested (hit frequency here may not be typical).

compound	RVFV N-RNA inh
Nc1nc2ccc(Cl)cc2n2c(-c3ccccc3)nnc12	93
Oc1cc(O)cc(/C=C/c2ccc(O)c(O)c2)c1	93
Cc1ccc(SCC(=O)N/N=C/c2ccco2)cc1	98
Cc1c2cnn(C)c(=O)c2c(C)n1-c1ccccc1	93
O=S(=O)(c1cccc(C(F)(F)F)c1)N1CN2CN(C1)CN(S(=O)(=O)c1cccc(C(F)(F)F)c1)C2	98
Oc1ccc(C2C=CCC2)cc1 (stereo not given)	101
N#CC1=C(N)Oc2c(oc(CO)cc2=O)C12C(=O)NC1C=CC=CC12 (stereo not given)	98
CN1C(=O)CC(C(=O)O)SC1=Nc1cccc(F)c1 (stereo not given)	93
COCCCn1c(=N)c(C(=O)N2CCCCC2)cc2c(=O)n3cccc(C)c3nc21	88
C[C@]12C=C(C#N)C[C@@]1(C)C=C(C#N)C2	90

Other records.
compound	RVFV N-RNA inh
O=S(=O)(c1cccc(-c2nc3ccccc3s2)c1)N1CCOCC1	93
Cc1ccc2nc(NC(=O)CSc3cn(C)c4ccccc34)sc2c1	96
CCOC(=O)CN1C(=O)S/C(=C/c2ccc(OCC(N)=O)c(OCC)c2)C1=O	90
Cc1ccc(C(=O)NC(C(=O)O)c2ccccc2)cc1 (stereo not given)	88
OCCN1CCN(C(=S)/N=C(/Nc2ccccc2)c2ccccc2)CC1	101
C[C@@H]1CC[C@H]2[C@@H](C)C(O)O[C@@H]3OC4(C)CC[C@@H]1[C@]32OO4 (stereo not given in full)	100
Cc1ccc(N2CCN(C(=O)N3CCCCCC3)CC2)cc1Cl	81
Cc1ccccc1-c1n[nH]c(=S)n1/N=C/c1ccc(N(C)C)cc1	86
COc1ccccc1S(=O)(=O)CC(SC#N)c1ccccc1 (stereo not given)	87
COC(=O)C1(C(F)(F)F)C2C=CC(C2)N1S(=O)(=O)c1ccccc1 (stereo not given)	92

Continuation.
compound	RVFV N-RNA inh
O=C(Nc1ccc2c(c1)COC2=O)c1cccc(Cl)c1	98
CC1(C(=O)O)C2CCC(O2)C1(C)C(=O)O (stereo not given)	97
CCC(=O)Nc1c(CC)cccc1CC	97
CCOc1ccc(-c2cnc(SCC)nc2N)cc1	95
Cc1nc2sccn2c1Br	95
NCCCC(N)C(=O)O (stereo not given)	103
COc1cccc(C(=O)Nc2cccc(C)c2)c1	88
CCOc1ccc(-c2nnc3ccc(SCC(N)=O)nn23)cc1	99
C=CCN1C(c2ccc(C)cc2)=CS/C1=C(\C#N)C(=O)OCC	99
Cc1ccc(C2CC(c3cccs3)=NN2C(=O)CSc2nnc(CNC(=O)c3ccco3)n2-c2ccccc2)cc1 (stereo not given)	99

Exported as labelled records: part of the list above
NCCCC(N)C(=O)O (stereo not given)
  RVFV N-RNA inh: 103
CCC(=O)Nc1c(CC)cccc1CC
  RVFV N-RNA inh: 97

New compounds follow:
compound	RVFV N-RNA inh
N#Cc1c(-c2ccccc2)cc(C2CC2)nc1N	79
CCOC(=O)c1ccc(NC(=O)CSc2nnc(CNC(=O)c3ccco3)n2-c2ccc(F)cc2)cc1	97
CCCC(C)C(=O)NCc1ccccc1 (stereo not given)	92
CCc1ccc(NC(=S)NC(=O)/C=C/c2ccco2)cc1	82
O=C(O)c1ccc2c3c(cccc13)C(=O)N(c1ccccc1O)C2=O	97
O=C(Cn1c(=O)oc2ccccc21)NC12CC3CC(CC(C3)C1)C2	92
CC(C)(C)OC(=O)N1CCCN(C(=O)Nc2ccccc2)CC1	100
Cc1cc(C(F)(F)F)nn1CC(=O)Nc1ccc2c(c1)OCO2	95
O=C(O)/C=C\C(=O)NCc1ccc2c(c1)OCO2	102
FC(F)(F)c1cc(-c2cccnc2)nc2cc(C3CC3)nn12	98

(next part)
compound	RVFV N-RNA inh
CCn1c(-c2ccccc2)cs/c1=N/NC(=O)c1ccncc1	98
O=c1[nH]c(=S)[nH]c(O)c1-c1ccccc1	93
COc1ccc2cc(Br)ccc2c1CC(=O)NN1CCN(C)CC1	90
CCOc1ccccc1NC(=O)c1oc2ccccc2c1NC(=O)C1CCCO1 (stereo not given)	99
CCN(C(=O)Cc1ccc(F)cc1)C1CCCCC1	98
Cc1cc(C(=O)Oc2ccc(Cl)cc2)no1	83
NC(=O)c1nn(-c2ccc(Cl)cc2)c(=O)c2ccccc12	101
O=C(NC(NC(=S)Nc1ccc(F)c([N+](=O)[O-])c1)C(Cl)(Cl)Cl)C(c1ccccc1)c1ccccc1 (stereo not given)	118
O=C(CSc1nc(=O)n(CCN2CCOCC2)c2c1CCC2)NCc1ccccc1	99
CC(C(=O)O)c1cccc(C(=O)c2ccccc2)c1 (stereo not given)	98&93&77

Next section.
compound	RVFV N-RNA inh
Cc1oc(CC(C)C)cc1C(=O)Nc1cccc(C(=O)O)c1	103
CC(C)(C)c1cc(N=O)cc(C(C)(C)C)c1O	105
CC1CCN(c2ncnc3ccc(Br)cc23)CC1	85
O=S(=O)(NCCCc1nc2ccccc2[nH]1)c1ccccc1	97
O=C(CCSc1ccccc1)Nc1nccs1	94
O=C(NC12CC3CC(CC(C3)C1)C2)c1ccccc1O	101
O=C(O)/C=C/c1ccc(OC(F)F)cc1	87
O=C1Nc2ccc(Cl)cc2/C1=C/c1cc(Cl)c(O)c(Cl)c1	108
CN1CCN(Cc2cn[nH]c2-c2ccc(F)cc2)CC1	95
O=c1cc(C(F)(F)F)nc(SCc2ccccn2)[nH]1	97

Remaining list, next part.
compound	RVFV N-RNA inh
CC(N)C(=O)Nc1ccccc1-c1ccccc1 (stereo not given)	98
C[C@]12CC[C@@H]3c4ccc(O)cc4C[C@@H](CCCCCCCCCS(=O)CCCC(F)(F)C(F)(F)F)[C@H]3[C@@H]1CC[C@@H]2O (stereo not given in full)	103&93
COC(=O)c1cc(C)sc1NC(=S)NC(C)c1cn(C)nc1C (stereo not given)	93
Cc1cc(C)c2sc(=NC(=O)CN3C(=O)CCC3=O)n(C)c2c1	97
CN1/C(=C\C(=O)C(F)F)C(C)(C)c2ccccc21	91
N#Cc1ccc(-c2c(NC(=O)NS(=O)(=O)c3ccccc3Cl)oc(-c3ccco3)c2C#N)cc1	82
CN(CCOc1ccc(CC2SC(=O)NC2=O)cc1)c1ccccn1 (stereo not given)	95&101
COc1ccc2oc(=O)c(-c3nc4ccccc4c(=O)[nH]3)cc2c1	108
CCn1nnc2c(N(Cc3ccccc3)Cc3ccccc3)ncnc21	91
N#Cc1ccc(Oc2c(Cl)cncc2Cl)cc1	97

More structures follow.
compound	RVFV N-RNA inh
COc1ccc2c(C)nc(NC3=NC(C)(C)CC(C)=N3)nc2c1	84
COc1ccc(OC)c(S(=O)(=O)N2CCc3cc(OC)c(OC)cc3C2)c1	97
Cc1ccc(S(=O)(=O)N(C)CC(=O)Nc2cccnc2)cc1	98
COc1cccc(CO)c1OCc1ccccc1F	91
CCCCNC(=O)CC1NCCNC1=O (stereo not given)	96
O=C1CSC(=S)N1CCCCCCN1C(=O)CSC1=S	97
Cc1ccc2nc(NC(=O)CSc3nnc(Cc4ccccc4)o3)sc2c1	90
CCCNS(=O)(=O)c1ccc(OCC(=O)O)c(Cl)c1	94
C[C@H](Cc1ccccc1)Nc1ncnc2c1ncn2[C@@H]1O[C@H](CO)[C@H](O)C1O (stereo not given in full)	96
COc1ccc(-c2cc(=O)n(CCC#N)[nH]2)cc1	92

A second format for 4 compounds above:
Cc1ccc(S(=O)(=O)N(C)CC(=O)Nc2cccnc2)cc1
  RVFV N-RNA inh: 98

COc1cccc(CO)c1OCc1ccccc1F
  RVFV N-RNA inh: 91

CCCCNC(=O)CC1NCCNC1=O (stereo not given)
  RVFV N-RNA inh: 96

O=C1CSC(=S)N1CCCCCCN1C(=O)CSC1=S
  RVFV N-RNA inh: 97

(more compounds)
compound	RVFV N-RNA inh
Cc1cc(O)cc(=O)[nH]1	88
CC(C)NCC(O)COc1cccc2[nH]ccc12 (stereo not given)	102&97&95
COC(=O)c1sc(NC(=O)c2csc3c2CCCC3)c(C#N)c1C	92
Cc1c(C)n(CC(O)CN2CCN(CC(O)Cn3c(C)c(C)c4ccccc43)CC2)c2ccccc12 (stereo not given)	94
CCN(CC)C(=O)N1CCN(c2ccccc2)CC1	88
O=C(Oc1ccc2oc(-c3ccco3)cc(=O)c2c1)C1CCCCC1	96
O=C(NCCO)c1ccccc1-c1ccccc1	99
COc1cccc(C(=O)Nc2ccc(-c3nc4ncccc4o3)cc2)c1	92
COc1ccc(CCN(C)Cc2ccncc2)cc1OC	93
CCOC(=O)c1cc(C(=O)NCc2ccccc2)c(=O)[nH]c1C	97

The list goes on.
compound	RVFV N-RNA inh
Nc1ncnc2c1ncn2C1CCCC1	91
CC(NC(C)(C)C)C(=O)c1cccc(Cl)c1 (stereo not given)	97&98&98&96
Cc1ccc(N2C(=O)NC(c3ccccc3)(C(F)(F)F)C2=O)nc1 (stereo not given)	94
COCC(C)NC(=O)Nc1cn(C)c2ccccc12 (stereo not given)	95
CCN=C(Nc1ccc2c(c1)OCO2)SC1CC(=O)N(c2ccc(C(=O)OC)cc2)C1=O (stereo not given)	95
O=C(O)CCc1ccc(NCc2cccc(Oc3ccccc3)c2)cc1	87
CCOC(=O)N1CCC(NCc2ccc(Br)cc2)CC1	103
C=CCn1c(COc2ccccc2)nnc1SCC(N)=O	91
C=CCNC(=O)Cc1coc2cc(C)ccc12	91
O=C(O/N=C(\Cn1nnc(N2CCOCC2)n1)c1ccc(Cl)cc1)c1ccc(Cl)cc1Cl	93

Remaining list, next part
compound	RVFV N-RNA inh
CCOC(=O)[C@H](CCc1ccccc1)N[C@@H](C)C(=O)N1[C@H](C(=O)O)C[C@H]2CCCC[C@@H]21	92
O=C(c1ccco1)N(Cc1ccccc1)Cc1cn(-c2ccccc2)nc1-c1ccc(F)cc1	107
CN(C)S(=O)(=O)c1ccc2c3c(cccc13)C(=O)N2C(=O)c1cccs1	107
CN(C)c1ccc2c3c(cccc13)C(=O)N(c1nc3ccccc3n1C)C2=O	94
CCCCC(=O)C1C(=O)CC(c2ccccc2)CC1=O (stereo not given)	97
O=S(=O)(c1ccccc1)c1nc(-c2ccccc2)oc1N1CCCC1	93
O=C(/C=C/c1cccc(Cl)c1)NCc1ccncc1	98
CC(C)Oc1ccc(CNC(=O)Oc2ccccc2)cc1	91
COc1ccc(CN2CCCC2)cc1OC	91
O=C1NCN(c2ccccc2)C12CCN(CC1COc3ccccc3O1)CC2 (stereo not given)	98&93

Following part
compound	RVFV N-RNA inh
CCc1cccc2c1=NC(=O)C=2c1c(C)[nH]n(-c2ccccc2)c1=O	91
O=C(O)CC1S/C(=N/N=C2\CSC(=O)N2)NC1=O (stereo not given)	100
CN1CCN(CC(=O)Nc2ccccc2)CC1	88
O=C(O/N=C1\CCCCC1Cn1ccnc1)c1ccc(Cl)cc1 (stereo not given)	97
CCOC(=O)c1cnc2cc(-c3ccco3)[nH]n2c1=O	102
S=C(NCc1ccco1)NNC(=S)Nc1ccc(Cl)cc1	102
C/C(=N\OC(=O)c1ccc(C(F)(F)F)cc1)c1cc[nH]c1	98
Cc1cc(=O)n(C(C)(C)C)c(=O)n1Cc1ccccc1	91
O=C(O)c1ccccc1C(=O)NCc1nc(-c2ccc(C(F)(F)F)cc2)no1	93
COCCNC(=O)Cc1ccc(F)cc1	100

Next part.
compound	RVFV N-RNA inh
COC(=O)c1cccc(NC(=O)C=C(C)C)c1	98
Cc1sc(NC(=O)/C=C/c2cccs2)c(C#N)c1C	93
Cc1occc1C(=O)Nc1ccccc1Cc1ccccc1	94
Cc1onc(-c2ccccc2Cl)c1C(=O)N1CCCC1	98
Cn1c(C(=O)O)ccc1S(=O)(=O)N(Cc1ccccn1)Cc1ccccn1	102
CNC(=O)c1cc(S(=O)(=O)Nc2ccc3c(c2)OCCO3)ccc1C	94
O=c1c2cnn(CCO)c2ncn1Cc1ccc(F)cc1	99
CCOC(=O)C1CCN(C(=O)Cn2cc(C(=O)c3ccco3)c3ccccc32)CC1	86
O=C(CSc1nnnn1Cc1ccccc1)n1c2c(c3c1CCCC3)CCCC2	100
COc1ccc2c(c1)sc(=NC(=O)COCC(=O)N=c1sc3cc(OC)ccc3n1C)n2C	105

(list continues)
compound	RVFV N-RNA inh
CCCN1N=C(C(C)(C)C)Cn2c1nc1c2c(=O)n(CCC)c(=O)n1C	92
O=C(CCc1n[nH]c(=O)[nH]c1=O)NCc1ccccc1	92
O=C(NC1CC1)c1cc2ccccc2o1	96
Nc1ncnc2c1ncn2[C@@H]1O[C@H](CO)C[C@@H]1O	92
O=c1c2oc3cccc4c3n(c=2c(=O)c2ccccc12)CCC4	95
CSc1ccccc1C(=O)NCc1n[nH]c(=O)c2ccccc12	88
O=C(Nc1ccccc1)OC1CCS(=O)(=O)C1 (stereo not given)	100
CN1C(=O)/C(=C\c2ccc(C(=O)NCc3ccco3)cc2)SC1=S	93
CC(C(=O)Nc1ccon1)N1C(=O)c2ccccc2S1(=O)=O (stereo not given)	91
Cc1ccc(C(=O)NCC(=O)N2CCN(c3ccccc3)CC2)cc1	97

(list continues)
compound	RVFV N-RNA inh
O=C(NCC1(c2ccccc2)CCCC1)c1ccc(Br)o1	87
Cc1nc(CSc2nc3ccccc3s2)cs1	96
CCN(CC)CCN1C(=O)C(O)=C(C(=O)/C=C/c2ccco2)C1c1ccc(OC)cc1 (stereo not given)	98
CCOc1nc2sc3c(c2c2ncnn12)CCCC3	91
COC(=O)c1cccc(Cn2c(C)nc3ccccc3c2=O)c1	86
CSc1ccccc1NC=C(C#N)C#N	86
Nn1c(SCc2cccnc2)nncc1=O	100
Cn1c(-c2ccc(C(=O)c3ccccc3)s2)nc2ccccc21	100
O=C(c1nc2ncccn2n1)N1CCN(c2ccccc2)CC1	97

High-throughput results as filed in PubChem.
